CSC inhib: cancer stem cell inhibition | 300,000 tested, 1.1% active | inhibition, % at 7.5 µM | cancer stem cell-like cells viability, luminescence;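 active = mean at 75% or more and at least half the replicates too; inconclusive = mean and replicates disagree; tested in HMLE shEcad cells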;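 also: 0% = median of negative and 100% = median of positive control wells; the first replicate is given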
MT1-MMP act inh: inhibitors of human MT1-MMP activation. P50281. HT1080 RFP-PRO-GFP cells, GFP/RFP ratio fluorescence, overnight; percent of plate control window, DMSO zero. GFP/RFP ratio change, % at 20 µM. 360,000 tested, 0.061% active. AID 651647;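 active = GFP/RFP ratio change of at least 30% with cell ATP level not reduced by more than half and red fluorescence within 50% of control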; also: strong numbers were not always called active
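Assay system: HT1080 RFP-PRO-GFP cells | Dosing: 20 µM single dose, 1% DMSO | Incubation: Cells overnight before dosing, compound overnight, 37 °C, 5% CO2 | Evaluation: GFP/RFP fluorescence ratio | Control set: DMSO-only wells and HT1080 RFP-L50D-GFP cell wells as references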
Yeast UUG start: modulators of start codon recognition fidelity in yeast; S. cerevisiae UUG-firefly luciferase reporter, luminescence/redox ratio; 350,000 tested, 0.13% active; activity score, % at 18.7 µM;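 active = replicate mean at a twofold rise or more, about +100% in these data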;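 also: firefly luciferase made from a UUG start codon reports start codon fidelity; reporter light over untreated wells divided by growth signal over untreated wells; some hits fall short of that in this replicate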
Rce1 inhib: inhibitors of yeast Ras-converting enzyme | Q03530 | yeast membranes, quenched prenylated peptide cleavage fluorescence | calls only | 290,000 tested, 0.27% active | AID 2563;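 active = fall in fluorescence gain of 50% or more versus controls, with final raw signal at or below 3038400; inconclusive = same 50% fall but final raw signal above 3038400; inactive = fall in fluorescence gain under 50%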;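 also: plate controls were neutral control wells for no effect and wells lacking membranes for full effect; tested at 10 µM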
Target sequence (Q03530 whole entry, looked up): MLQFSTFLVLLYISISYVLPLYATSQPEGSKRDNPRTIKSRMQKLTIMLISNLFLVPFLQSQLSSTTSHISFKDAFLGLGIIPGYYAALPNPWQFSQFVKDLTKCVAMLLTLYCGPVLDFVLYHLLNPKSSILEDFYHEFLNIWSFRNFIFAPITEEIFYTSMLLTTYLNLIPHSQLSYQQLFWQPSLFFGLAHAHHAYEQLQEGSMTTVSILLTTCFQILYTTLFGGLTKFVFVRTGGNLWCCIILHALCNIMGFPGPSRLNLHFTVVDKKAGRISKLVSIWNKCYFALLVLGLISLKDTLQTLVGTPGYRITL
PABP polyA inh: blocks human PABP binding to poly(A) RNA | P11940 | fluorescence polarization | inhibition, % at 35 µM | 290,000 tested, 1% active;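 active = 50% or more with normal probe brightness, or confirmed in later tests; inconclusive = above 50% with abnormal brightness, or retests that disagree; inactive = below 50% or failed in later tests; about a fifth of its hits are not listed in these tables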;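 also: calls also rest on retests at 20 µM and on dose response follow-up; controls were probe without protein and protein plus probe with vehicle; some compounds called inactive have numbers as strong as hits; many hits fall short of the cut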
eIF4H inh: inhibitors of RNA binding by human eIF4H. Q15056. eIF4H fluorescence polarization binding assay. inhibition, % at 35 µM. 290,000 tested, 0.94% active;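 active = 50% or more with normal probe brightness, or confirmed in later tests; inconclusive = above 50% with abnormal brightness, or retests that disagree; inactive = below 50% or failed in later tests; about a fifth of its hits are not listed in these tables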;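 also: calls also rest on retests at 20 µM and on dose response follow-up; 0% = protein and probe with vehicle and 100% = probe without protein; strong numbers were not always called active; many hits fall short of the cut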
Env fusion inh: HIV envelope-mediated fusion inhibition. HeLa-JRFL Env/CEM21 cell fusion, luciferase. inhibition, % at 12.3 µM. 360,000 tested, 1.1% active. AID 651610;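 active = mean replicate inhibition score of at least 50 and every replicate individually at or above 50; inconclusive = only one of the two criteria met; inactive = mean below 50 and not all replicates reaching 50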;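 also: 0% = plate neutral controls and 100% = maraviroc near 300 nM; one replicate is shown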
eIF4H inh retest: also measured in eIF4H inh; calls as there; inhibition, %; compound at 20 µM; confirmation average;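 mean of two retest wells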
PABP polyA inh retest: second read-out of PABP polyA inh, no call of its own (marks repeat the call); inhibition, %; compound at 20 µM; confirmation repeats;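 mean of two retest wells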
MT1-MMP act inh RFP: further read-out of MT1-MMP act inh, marked with its call; RFP signal change, %; measured here: RFP expression control read;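 0 = vehicle wells; hits needed this value within 50% of zero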
* marks the source's active call; other numbers are inactive results; i = inactive; ? = inconclusive; · = no result given.

SMILES | CSC inhib | MT1-MMP act inh | MT1-MMP act inh RFP | Yeast UUG start | Rce1 inhib | PABP polyA inh | eIF4H inh | Env fusion inh | others
O=C1OCCC1Sc1nnc(-c2ccc3c(c2)OCO3)o1 (configuration not stated) | · | -1 | 1 | · | i | -5 | 2 | 32
CC(NC(=O)c1ccc(Br)s1)C1CCCO1 (configuration not stated) | -3 | 0 | 3 | · | i | 5 | 9 | ·
CCN1CCN(c2cc(C(C)C)nc3c(-c4ccccc4)c(C)nn23)CC1 | -4 | 5 | -1 | 6 | i | -6 | 9 | -2
COc1ccc(C(CC(=O)O)NC(=O)c2ccccc2[N+](=O)[O-])cc1 (configuration not stated) | 8 | 0 | 4 | -7 | i | 6 | 3 | 4
CCOc1ccc(-c2nnn(CC(=O)N3CCN(c4ccc(F)cc4)CC3)n2)cc1OCC | 0 | -2 | -2 | -3 | i | -4 | -9 | ·
O=C(CC1CC2CCC1C2)N1CCN(S(=O)(=O)c2ccccc2C(F)(F)F)CC1 (configuration not stated) | -8 | 5 | -6 | -19 | · | · | · | ·
Cc1cc(=O)[nH]c2n[nH]c(-c3ccccc3)c12 | 11 | -3 | 1 | -20 | i | -2 | -8 | ·
CCN=C1SC(C(=O)Nc2cccc(OCC)c2)CC(=O)N1CC (configuration not stated) | -5 | 6 | 2 | -9 | i | -10 | 0 | -54
COc1cc(C(=O)Nc2c(C)cc(C)cc2C)c(-n2cnnn2)cc1OC | 23 | 2 | 2 | 0 | i | -2 | -3 | -7
CN1CCN(CCCNC(=O)c2ccc(/C=C3/Sc4ccccc4N(Cc4cccc(Cl)c4)C3=O)cc2)CC1 | · | 4 | 0 | -17 | i | 6 | -8 | 11
Cc1cc(OCC(=O)O)c2ccccc2n1 | -2 | -1 | 8 | · | i | -1 | 4 | -27
O=C(COC(=O)c1c(F)cccc1F)Nc1ccc2c(c1)OCO2 | · | 1 | 3 | -19 | · | · | · | 3
Cc1ccc(NC(=O)C2CCN(S(=O)(=O)c3ccc4ccccc4c3)CC2)nc1 | · | 4 | -2 | -3 | · | · | · | -31
CN(C)S(=O)(=O)N1CCC(Oc2cccc(C(=O)NC3CCCCC3)c2)CC1 | -3 | -1 | -33 | -8 | i | · | · | 38
O=C(NC(=S)NCc1cccnc1)c1cc(Br)ccc1Cl | 2 | -1 | -6 | -10 | i | 7 | -11 | -10
Cc1ccc(C(=O)COC(=O)CNC(=O)CNC(=O)c2ccc(C)cc2)cc1 | -7 | 5 | 4 | -15 | i | -1 | 1 | -2
CC(C)(C)N(Cc1cc2ccccc2[nH]c1=O)C(=O)c1ccco1 | -7 | -3 | 1 | -10 | i | -6 | 1 | 13
COC(=O)C1=C2SC(C)C(=O)N2C(N)=C(C#N)C1c1ccc(OC)c(OC)c1 (configuration not stated) | -18 | 2 | 6 | -11 | i | 12 | -3 | ·
Cc1ccc(C2=NS(=O)(=O)N(C)C(C(=O)NCc3ccc4c(c3)OCO4)=C2)cc1 | -6 | 1 | 3 | 1 | i | 18 | -2 | -16
Oc1ccc(Cl)cc1-c1cc(-c2ccco2)[nH]n1 | 18 | 7 | 12 | -34 | i | -2 | 2 | ·

Fetched one by one from above (3):
SMILES | CSC inhib | MT1-MMP act inh | MT1-MMP act inh RFP | Yeast UUG start | Rce1 inhib | PABP polyA inh | eIF4H inh | Env fusion inh | others
Cc1cc(=O)[nH]c2n[nH]c(-c3ccccc3)c12 | 11 | -3 | 1 | -20 | i | -2 | -8 | ·
CCOc1ccc(-c2nnn(CC(=O)N3CCN(c4ccc(F)cc4)CC3)n2)cc1OCC | 0 | -2 | -2 | -3 | i | -4 | -9 | ·
Cc1ccc(C(=O)COC(=O)CNC(=O)CNC(=O)c2ccc(C)cc2)cc1 | -7 | 5 | 4 | -15 | i | -1 | 1 | -2

Next section:
SMILES | CSC inhib | MT1-MMP act inh | MT1-MMP act inh RFP | Yeast UUG start | Rce1 inhib | PABP polyA inh | eIF4H inh | Env fusion inh | others
CC1c2ccccc2-c2ccccc2N1C (configuration not stated) | · | 0 | 4 | -12 | · | · | · | -8
CCC(=O)NC(=S)Nc1cccc(NC(=O)c2ccccc2Cl)c1 | -5 | 0 | -11 | -21 | i | 12 | 5 | ·
Cc1ccc(-n2c(N)c(C(=O)Nc3ccccc3F)sc2=S)cc1C | 7 | -8 | -6 | -16 | i | 0 | 2 | -72
Cc1ccc(OCCCCN2CCC(C)CC2)cc1 | 25 | -1 | 0 | -19 | i | 8 | 12 | ·
O=C1c2ccccc2C(=O)N1CC(=O)N1c2ccccc2CCc2ccccc21 | -1 | -3 | 0 | -8 | i | 8 | 5 | -34
O=C(NCc1ccc(Cl)cc1)C(=O)NCC1OCCN1C(=O)c1cccs1 (configuration not stated) | -2 | -9 | -5 | · | i | -3 | 8 | -44
COc1ccc(-c2nc3scc(-c4ccc(OC)c(OC)c4)c3c(=O)o2)cc1 | 2 | 3 | -2 | -3 | i | -30 | 0 | ·
Cc1cc(=O)[nH]c(Nc2cccc(F)c2)n1 | 1 | 2 | 1 | -28 | i | -11 | 9 | -1
CCOC(=O)C1CCN(C(=O)COc2ccc(S(=O)(=O)N3CCCC3)cc2C)CC1 | 7 | 10 | -2 | -13 | i | 4 | -5 | 16
c1ccc2nc3c(nc2c1)CCCC3 | · | 2 | 4 | -16 | i | -8 | -3 | -8
Cc1cc(SCC(=O)c2ccc(O)c(O)c2)n2nc(C)c(-c3ccccc3)c2n1 | 119* | -2 | -13 | -17 | i | -7 | -3 | 34
COc1ccc2nc(N3CCC(O)CC3)c(C#N)cc2c1 | -10 | -12 | 2 | -1 | i | 70 | 10 | -156 | eIF4H inh retest=14;PABP polyA inh retest=22
COc1ccccc1N1CCN(C(=O)CN2C(=O)C3CCCCC3C2=O)CC1 (configuration not stated) | -16 | 0 | -1 | · | i | 3 | 5 | 1
O=S(Cc1ccc(Br)cc1)Cc1nnc(SCc2c(F)cccc2Cl)n1-c1ccccc1 (configuration not stated) | 3 | -9 | -15 | · | i | 0 | 5 | ·
COc1ccccc1CN(C)C(=O)CSCC(=O)Nc1ccccc1F | 3 | -2 | 0 | -3 | · | · | · | 2
Cc1csc(CNC(=O)c2cc(COc3c(C)cccc3C)on2)n1 | 0 | -6 | -2 | -15 | i | 0 | -6 | 4
Cc1nc(-c2ccc(Cl)cc2)sc1C1(C)CC(c2ccc(Cl)cc2)=NO1 (configuration not stated) | -7 | 0 | 4 | -12 | i | · | · | 0
COc1ccc([C@@H]2[C@@H]3C(=O)N(C(C)(C)C)C(=O)[C@@H]3[C@]3(Cc4ccc(Cl)cc4)C(=O)N(c4ccc(Br)cc4)C(=O)N23)cc1 | 7 | -4 | -7 | -9 | i | 5 | 4 | 49
Nc1nnn(CC(=O)N/N=C/c2ccccc2)n1 | -4 | 3 | 2 | · | i | -2 | -3 | -13
Cc1ccc(/C=C/c2nnc(-c3ccccc3)o2)cc1 | -7 | -2 | -1 | -18 | i | 4 | -3 | ·
Cn1c(NCc2ccccc2)nc2cc(-c3ccccc3)sc2c1=O | · | 2 | -12 | -10 | · | · | · | 3
COc1ccccc1-n1c(SCC(=O)Nc2cccc(C(=O)O)c2)nnc1-c1ccccc1C | · | 0 | 0 | -22 | i | 1 | -4 | -11
Cc1ccc(C(=O)N2CCCC(C(F)(F)F)C2)cc1S(=O)(=O)N1CCCCC1 (configuration not stated) | -15 | -2 | -9 | 8 | i | · | · | 10
CC1CCN(C(=O)Cn2cc(C(F)(F)F)ccc2=O)c2ccccc2S1 (configuration not stated) | -8 | -2 | 0 | 12 | · | · | · | 0
CC(=O)c1c(C)[nH]c(C(=O)Nc2ccc(F)c(F)c2F)c1C | -2 | 5 | 0 | -14 | i | -3 | -9 | 2
O=C1COc2ccc(S(=O)(=O)CCC(=O)N3CCN(c4ccccc4)CC3)cc2N1 | 2 | 1 | 0 | -17 | i | 13 | -7 | -1
O=C(CSc1nnnn1-c1ccccc1F)NNC(=O)c1ccco1 | -6 | 2 | 4 | · | i | -10 | -4 | 12
CC(C)=CCN1CCN(Cc2ccc(C#CC(C)(C)O)cc2)CC1CCO (configuration not stated) | · | 1 | 0 | -3 | i | -6 | 4 | -1
CC(C)(C)C(=O)Cn1ncc(Br)c(Br)c1=O | · | -7 | -8 | · | i | -3 | -8 | -144
O=C(Nc1ccc(Oc2ncnc3cc(Cl)ccc23)nc1)c1cccs1 | 0 | 3 | -1 | -6 | i | -4 | -9 | -8
CCCNc1nc(-c2cc(C(=O)Nc3ccccc3)on2)cc(C(C)C)n1 | -3 | 0 | -4 | -2 | i | · | · | 1
O=C(Nc1cccc2nsnc12)C1CC(=O)N(c2ccccc2)C1 (configuration not stated) | -5 | 4 | 3 | -4 | i | 8 | 1 | ·
O=C(N/N=C/c1ccc2cccc(OCc3ccccc3)c2n1)c1ccc(Cl)cc1 | 11 | 8 | 0 | -3 | i | -4 | 3 | -14
CC(Oc1ccc2c(-c3ccccc3)cc(=O)oc2c1)C(=O)N[C@H](Cc1c[nH]c2ccccc12)C(=O)O (some centres not stated) | 1 | 1 | 7 | -1 | i | -5 | -2 | ·
Cc1[nH]c(=O)c(C#N)c2c1CSC(C)(C)C2 | · | 1 | 4 | -17 | i | -13 | -3 | -82
CCCS(=O)(=O)N1CCN(c2ccccc2F)CC1 | -16 | -6 | -1 | -12 | i | -8 | 1 | ·
Cc1ccc(Oc2nc3ccccc3n3cccc23)cc1 | -9 | -7 | -6 | · | i | -1 | 6 | ·
COCCNC(=O)c1ccccc1NC(=O)c1ccccc1SC | -3 | 0 | 3 | · | i | 8 | 0 | 13
Cc1cccc(C(=O)NCC(=O)OCC(=O)N(C)CC(=O)Nc2ccccc2Cl)c1 | · | 0 | -1 | -16 | · | · | · | -5
COC(=O)C(NS(=O)(=O)c1ccc(C)cc1)c1ccccc1 (configuration not stated) | 4 | 7 | 1 | · | i | 10 | -13 | -10
CCOC(=O)C(=CN=C(N)Nc1nc2ccccc2o1)C(=O)OCC | 8 | 2 | 4 | -18 | i | -2 | 12 | -24
CCOC(=O)C1CCN(C(=O)COC(=O)CSc2ccccc2C)CC1 | · | 0 | 3 | 6 | · | · | · | 1
CC(=O)C1=C(C)NC(SCC(=O)c2ccc(-c3ccccc3)cc2)=C(C#N)C1c1cccnc1 (configuration not stated) | 51 | · | · | · | · | 18 | 17 | ·
Cc1ccc(-c2csc(=Nc3cccnc3)n2CCCn2ccnc2)cc1C | -21 | -17 | -23 | · | i | -15 | -3 | ?
CCn1c(NN)nc2sc3c(c2c1=O)CCC3 | -13 | 3 | 5 | -10 | · | 30* | 52* | · | eIF4H inh retest=93*;PABP polyA inh retest=75*
CCOCCn1c(CN2CCOCC2)nc2c1c(=O)[nH]c(=O)n2C | -13 | 3 | 5 | 1 | i | 11 | 0 | ·
COCCN(CCOC)S(=O)(=O)c1ccc(C(=O)Nc2nnc(C)o2)cc1 | -10 | -3 | -2 | -25 | i | -12 | 1 | ·
CCOCCCNC(=S)N1C2CCC1CC(NC(=O)NC13CC4CC(CC(C4)C1)C3)C2 (configuration not stated) | 9 | 1 | 2 | · | i | -4 | -10 | 40
CCCc1nnc(NC(=O)Cn2c(=O)sc3ccccc32)s1 | -8 | -5 | -1 | -11 | i | 6 | 3 | -13
